ClpP mod – qHTS Assay for Activators of ClpP; ATP-dependent Clp protease proteolytic subunit (Bacillus subtilis (strain 168)), P80244; purified B. subtilis ClpP, FRET peptide cleavage, 20 min; Potency, µM (top dose mostly 57.5 µM), for the others: top-dose activity change, negative = active; 340,000 tested, 1.9% active; active = well fitted falling curve with a large enough effect; inconclusive = small, poorly fitted or top-dose-only effect; inactive = no such curve, though single readings can be large or run the other way; also: potency is read from the fitted curve at half-maximal effect; the source files actives as falling curves though it sought activators and does not explain the sign; nearly all actives have a fitted effect of over 65% in size; many hits overshoot -100%
Target sequence (P80244 whole entry, looked up): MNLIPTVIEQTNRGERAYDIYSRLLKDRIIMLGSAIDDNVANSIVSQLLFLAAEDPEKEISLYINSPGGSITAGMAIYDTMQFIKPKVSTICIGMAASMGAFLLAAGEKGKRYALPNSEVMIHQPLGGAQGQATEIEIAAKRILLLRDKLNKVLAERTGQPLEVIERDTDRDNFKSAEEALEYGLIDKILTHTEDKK
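Purified B. subtilis ClpP, 10 microg/mL final in Tris/HCl pH8 with KCl, BSA, glycerol and Tween-20, cleaved an Abz/nitrotyrosine-quenched decapeptide. Fluorescence (ex 320, em 430) was read at 0 and 20 min at room temperature. Delta was normalized to 5.8 microM ADEP and DMSO/no-enzyme controls.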
Menin-MLL FL inh – inhibitors of human menin-MLL interaction, wild-type MLL peptide. Fluorescence polarization, fluorescein-MLL peptide displacement from menin. FP activity change, % at 61.4 µM. 290,000 tested, under 10 active. AID 1766; inconclusive = falling polarisation curve, or a change in total fluorescence; inactive = total fluorescence flat and polarisation flat or rising; no compound was filed as active; the % refers to the polarisation; negative = inhibition;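 also: % of control where 0% means no effect; inhibitors lower the polarisation; unlabelled MLL peptide was the positive control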
gsp agonist – agonists of gsp mutant (McCune-Albright syndrome); 340,000 tested, 0.13% active; gsp mutant cells, cAMP HTRF, 30 min; control for the full effect not named in the record; Potency, µM (doses to about 76.9 µM), for the others: top-dose activation (cAMP increase), actives largely listed as activators; AID 624287; active = well fitted activation curve with a large enough effect; inconclusive = small, poorly fitted or top-dose-only effect, or another doubt; inactive = no such curve, though single readings can be large or run the other way; cell line not stated here;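 also: phosphodiesterase inhibitor Ro 20-1724 added with compounds to block cAMP breakdown; potency is read from the fitted curve at half-maximal effect; nearly all actives have a fitted effect of over 60% in size; about a fifth of the inactives were tested at one dose only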
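Cells stably selected in G418 were plated at 2000/well, grown 16-24 hr, then given compounds in DMSO with the PDE inhibitor […] (300 uM solution added) for 30 min at 37C; cAMP was read by HTRF.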
gsp antagonist – gsp mutant antagonism. gsp-mutant cells, cAMP HTRF, 30 min; control for the full effect not named in the record. Potency, µM (series often up to 76.9 µM), without a hit: top-dose activity change, negative = inhibition, hits mostly inhibitors. 340,000 tested, 0.4% active; active = falling curve of any shape with a large fitted effect; inconclusive = falling curve, mostly with a smaller effect; inactive = flat or rising curve; cell line not stated here;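 also: intracellular cAMP measured with PDE inhibitor Ro 20-1724 present during compound exposure; potency is read from the fitted curve at half-maximal effect; % is scaled to controls: 0 for no effect and ±100 for the full control effect; nearly all actives have a fitted effect of over 65% in size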
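HTRF cAMP read-out (cAMP-d2 plus anti-cAMP antibody-K in lysis buffer, 30 min RT). Before lysis, cells are exposed to compounds with […] for 30 min at 37C in DPBS containing Ca/Mg, BSA and Tween 20.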
PINK1 modulator – changes PINK1 expression; Potency, µM (top dose mostly 76.6 µM), for inactives: at the highest dose activation (PINK1 increase), usual class: activators; 410,000 tested, 0.2% active; PINK1 immunofluorescence, high-content cytometry, 24 h; AID 624263; active = well fitted activation curve with a large enough effect; inconclusive = small, poorly fitted or top-dose-only effect; inactive = flat fitted curve, though single readings scatter; cell line not stated here;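 also: potency is read from the fitted curve at half-maximal effect; % of control where 0% means no effect; nearly all actives have a fitted effect of over 65% in size; a mitochondrial uncoupler was the plate control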
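Stable cell line treated 24 h with compounds at 5 concentrations (CCCP controls), then fixed and immunostained for PINK1 plus nuclear and cell stains; PINK1 immunofluorescence quantified by laser-scanning microplate cytometry.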
D2 ag – activates the human D2 dopamine receptor. P14416. DiscoveRx PathHunter D2 beta-arrestin, luminescence, 90 min; 100% = 57 uM dopamine signal. activation, % (concentration not given with the values). 360,000 tested, 0.084% active. AID 624465; in the data active = activation above about 40%; inconclusive = about 15% to 40%; inactive = below about 15%; also: compound concentration not given in the record; the text of the record calls up to 30% inactive
Target sequence (P14416 whole entry, looked up): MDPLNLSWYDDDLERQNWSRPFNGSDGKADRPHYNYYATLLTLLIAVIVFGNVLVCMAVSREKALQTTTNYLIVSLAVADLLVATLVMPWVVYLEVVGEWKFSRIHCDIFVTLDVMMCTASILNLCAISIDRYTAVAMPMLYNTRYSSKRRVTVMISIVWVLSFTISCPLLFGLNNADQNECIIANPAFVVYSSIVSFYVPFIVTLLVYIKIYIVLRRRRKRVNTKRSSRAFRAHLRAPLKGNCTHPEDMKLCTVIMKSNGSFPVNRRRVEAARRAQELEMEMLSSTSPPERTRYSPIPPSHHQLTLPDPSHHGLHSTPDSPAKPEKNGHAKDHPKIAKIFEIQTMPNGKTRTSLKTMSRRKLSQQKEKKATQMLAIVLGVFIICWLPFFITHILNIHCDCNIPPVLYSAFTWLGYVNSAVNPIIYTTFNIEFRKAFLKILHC
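DiscoveRx PathHunter D2 beta-arrestin cells (2,100/well) attached overnight, then compound-stimulated 90 min at 37 C in HBSS/10 mM HEPES/0.1% Tween-20 buffer; beta-galactosidase complementation read by luminescence after 1 h at ambient temperature. Dopamine 57 uM final (EC100) as control.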
Sfp inh – blocks B. subtilis Sfp PPTase activity. Q9F4F7. Biochemical Sfp PPTase activity, qHTS. Potency, µM, for inactives: max response, negative = inhibition, most hits filed as inhibitors. 310,000 tested, 3.5% active. AID 1490; active = well fitted inhibition curve with a large enough effect; inconclusive = small, poorly fitted or top-dose-only effect, or another doubt; inactive = no such curve, though single readings can be large or run the other way;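 also: the enzyme is Sfp with the accession as filed and its product quenches rhodamine fluorescence; potency is read from the fitted curve at half-maximal effect; 0% = enzyme reaction without inhibitor and -100% = no enzyme wells; top concentration of the series not given in the record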
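Reaction rates are the 30-min fluorescence difference (ex 525, em 598 nm) in wells containing 15 nM Sfp, 5 uM rhodamine-CoA and 12.5 uM BHQ-2-YbbR at pH 7.6 with 10 mM MgCl2.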
* hit, by the source's call; u = inconclusive; x = not tested or not shown; [ ] = another dose, or the depositor's remark. An unsorted share of the library, and some 5.1% of all compounds hit somewhere here.

SMILES	ClpP mod	Menin-MLL FL inh	gsp agonist	gsp antagonist	PINK1 modulator	D2 ag	Sfp inh
CCCCn1nc(NS(=O)(=O)c2cccc3nonc23)c2cc3cccc(C)c3nc21	0.7%	x	u	-4%	4.0%	-7.9	-4%
CN(C)CCNC(=O)c1scc2c1CCCC2	-0.3%	1.0	-3%	7%	1.1%	-3.1	3%
COc1ccc(-c2noc(Cc3ccccc3OC)n2)cc1	1.9%	4.5	-1%	-1%	1.4%	-3.6	-30%
Cc1cc(C)cc(C(=O)NCCCN2CCOCC2)c1	-1.2%	-0.5	8%[15.4 µM]	1%	-0.3%	1.3	13%
Cc1ccc(C)c(Nc2nc3c(S(=O)(=O)c4ccccc4)nnn3c3ccccc23)c1	55%	4.6	22%	10%	6.8%	-2.0	-10%
Cc1ccc(C(C(=O)NC2CCCCC2)N(C(=O)c2csnn2)C2CC2)o1 (centres undefined)	0.2%	3.7	5%	10%	1.9%	-3.0	5%
Cc1cccc(NC(=O)c2cc3ccccc3oc2=O)c1	-0.3%	4.1	14%	2%	1.7%	-3.1	11%
COCCn1nnnc1C(c1ccc2ncccc2c1)N1CCN(c2ccccc2F)CC1 (centres undefined)	-0.3%	2.0	3%	0%	3.4%[38.3 µM]	-0.9	-1%
N#C/C(=C/N1CCOCC1)c1ccccc1	-1.9%	5.4	-65%[inhibitor]	-2%	-0.3%	-1.6	8%
CN(C)NC(=S)NC1CCS(=O)(=O)C1 (centres undefined)	-0.2%	3.6	2%[15.4 µM]	19%	-1.2%	-3.2	79µM*
Cc1ccnc(NC(=O)CNC(=O)c2ccccc2Br)c1	-4.9%	x	16%	8%	-0.8%	-4.9	10%
COc1cc(-c2nnc(SCC#CCO)o2)cc(OC)c1OC	-0.4%	-1.7	9%	7%	0.1%	9.9	-1%
Cc1ccccc1N(CC(=O)N1CCCC1)S(=O)(=O)c1ccc(Cl)cc1	1.0%	x	u	9%	0.3%	1.1	x
O=C(N/N=C1\CC2CC=CC12)c1ccc(COc2ccccc2)cc1 (centres undefined)	-3.2%	-0.6	-8%	-2%	1.1%	-0.5	13%
CN(C(=O)c1cccc(NC(=O)Cc2ccc([N+](=O)[O-])cc2)c1)C1CCCCC1	-0.8%	x	9%	u	6.3%	0.5	x
COc1ccc(C(=O)NCCCNC(=O)c2cnccn2)cc1Br	x	-3.0	19%[15.4 µM]	-4%	-0.8%	-2.8	11%
C1CCC(C23CC4CC(CC(C4)C2)C3)NC1 (centres undefined)	-1.2%	0.0	0%	5%	-1.7%	-0.9	4%
Cc1cc(=O)n2c(c1C#N)SC1CCCCC12O (centres undefined)	-3.2%	5.2	9%	-14%	-0.7%[38.3 µM]	-1.5	4%
Cc1ccc(C(=O)NC2CCCCNC2=O)cc1C (centres undefined)	x	2.7	-4%[15.4 µM]	10%	-0.5%	-0.6	7%
O=C(Cc1ccc([N+](=O)[O-])cc1)Nc1cc(C(F)(F)F)cc(C(F)(F)F)c1	x	5.1	-5%[15.4 µM]	-5%	2.4%	7.7	-1%
O=C1c2ccsc2SCCN1Cc1ccc(Cl)cc1Cl	-6.3%	3.9	-42%[inhibitor]	2%[15.4 µM]	0.6%	-4.6	-8%
CC(=O)Nc1cccc(C(=O)OCC(=O)NC2CCCCCCC2)c1	-1.7%	x	-14%	-18%	2.7%	1.0	x
O=C(COC(=O)c1cc([N+](=O)[O-])ccc1NCc1ccccc1)NC1CCCc2ccccc21 (centres undefined)	-1.8%	3.2	-6%	-2%	5.8%	-0.2	-5%
Cc1noc(C)c1COc1ccc(C(=O)OC(C)C(=O)Nc2ccc(S(=O)(=O)N3CCOCC3)cc2)cc1 (centres undefined)	-0.7%	-5.1	-2%	4%	-0.2%	0.7	17%
O=C(Cn1cc([N+](=O)[O-])ccc1=O)NCC1COc2ccccc2O1 (centres undefined)	2.2%	x	18%	4%	2.2%	-1.2	x
COc1ccc(CCC(=O)NCC(c2ccco2)N2CCc3ccccc32)cc1 (centres undefined)	-1.5%	x	-22%	-17%	u	-3.9	x
Cc1ccc(NC(=O)c2ncn(CCCNCC(C)c3ccccc3)n2)cc1C (centres undefined)	0.7%	x	x	18%	5.3%	-0.5	x
Cc1cc(C)nc(NC(=O)c2c(-c3ccccc3Cl)noc2C)n1	2.1%	4.7	-3%	-2%	0.1%	0.3	20%
CCc1nc2ccc(C(=O)NCCOc3ccc(OC)cc3)cn2c1N(C=O)Cc1ccc(OC)cc1	-6.7%	x	x	x	0.2%	-6.3	x
Cc1cccn2c(=O)c3cc(C(=O)N4CCN(Cc5ccccc5)CC4)sc3nc12	4.3%	x	u	-17%	0.6%	1.0	x
O=C1c2ccc(-c3ccc(F)cc3OCc3ccccc3)cc2S(=O)(=O)c2cccc(C(=O)N3CCN(c4ncc(Br)cn4)CC3)c21	-5.4%	x	x	0%	1.2%	1.7	x
CCC(C)C(NS(=O)(=O)c1ccc(C)cc1)C(=O)NCCCN1CCOCC1 (centres undefined)	-1.1%	x	20%	7%	1.9%	-6.4	26%
O=C(NC1CCCC1)C(c1ccccc1)N(Cc1ccc(F)cc1)C(=O)c1csnn1 (centres undefined)	-1.6%	x	12%	-13%	-1.3%	-0.1	5%
CCC1=NC(c2ccccc2Cl)N(O)C1(C)C (centres undefined)	-1.2%	0.3	-9%	4%	15%[38.3 µM]	-3.7	11%
O=[N+]([O-])c1ccc(N2CCN(CCOCCO)CC2)c([N+](=O)[O-])c1	-0.8%	-1.8	13%	3%	-1.1%	-1.0	-22%
COc1ccc(NC(=S)N(CCO)Cc2cc3c(C)cc(C)cc3[nH]c2=O)cc1	-5.3%	1.4	44%	-20%	2.7%	-0.2	4%
CCOc1cc(CNCc2cc(OC)cc(OC)c2)ccc1OC	1.2%	-0.5	-9%[15.4 µM]	-12%	-1.5%	2.9	-16%
COc1ccc(OCc2nnc(SCC(=O)Nc3ccccc3C#N)o2)cc1	x	0.2	-14%	7%	2.7%	3.0	20%
CCOC(=O)C1(Cc2cccc(OC)c2)CCN(Cc2ccc(OC)c(O)c2)CC1	0.8%	-3.6	-26%	5%	-2.1%	3.3	24%
COCc1c(C(=O)N/N=C\c2cccs2)nnn1-c1nonc1N	x	-5.9	2%	1%	u	-1.1	9%
CC1(NC(=O)CCc2nc3ccccc3c(=O)[nH]2)CCS(=O)(=O)C1 (centres undefined)	-0.2%	-1.7	1%	4%	-0.4%	-2.9	12%
O=C(Nc1ccc(CN2CCOCC2)cc1)c1ccc(-c2ccc(Cl)cc2Cl)o1	x	5.9	2%[15.4 µM]	-2%	-0.7%	1.7	-4%
COc1cccc(C2CC(c3cccc(Br)c3)n3nc(N)nc3N2)c1 (centres undefined)	-1.4%	4.1	1%	-6%	-3.4%	-2.4	-2%
Cc1cccc(C(=O)NCC(=O)N2CCN(c3ccccn3)CC2)c1	28µM*	x	-4%	7%	-0.4%	1.0	x
O=C(CN1c2cccc3cccc(c23)S1(=O)=O)N1CCN(c2ccc(F)cc2)CC1	-13%	x	u	-13%	1.1%	12	x
CCOc1ccc(OCC)c(NC(=O)C2CCCN(c3ncccn3)C2)c1 (centres undefined)	-5.1%	1.5	-36%	-7%	8.8%[38.3 µM]	1.8	-6%
COc1ccc2[nH]cc(CCN3C(=O)CCC3=O)c2c1	-0.1%	-0.3	-31%[inhibitor]	1%	0.7%	3.6	-3%
C[C@H](CO)N1C[C@H](C)[C@@H](CN(C)C(=O)Nc2ccc(C(F)(F)F)cc2)Oc2ccc(NC(=O)CCC(F)(F)F)cc2C1=O	-2.0%	x	x	-11%	0.8%	-3.7	x
Cc1ccc(S(=O)(=O)CCC(=O)OCC(=O)NCc2ccc(F)cc2)cc1	-0.1%	x	-47%[inhibitor]	x	1.7%	-4.3	x
COCCC(=O)N1CCC(Oc2ccc(C(=O)NCCc3cn[nH]c3)cc2)CC1	-2.6%	x	7%	0%	-0.4%	-2.9	9%
Cc1cc(Nc2ncc(Cl)cc2Cl)n[nH]1	-4.5%	0.5	-15%	-1%	3.2%	-1.1	14%
CCCc1nc2scc(-c3ccc(C)cc3)c2c(=O)n1N	1.2%	0.1	7%	-29%	1.6%	5.8	16%
CCCCCC(=O)Nc1cccc(-c2nc3ncccc3o2)c1	u	1.4	19%	-7%	x	-4.4	-12%
Cn1c(CNC(=O)OC(C)(C)C)n[nH]c1=S	-2.8%	-1.4	-5%	-1%	0.3%	0.5	6%
Cc1nn(CC(=O)Nc2ccc(N3CCOCC3)cc2)c(C)c1Cl	-2.7%	x	-2%	-1%	-0.4%	-1.6	3%
O=C(CN1C(=O)c2ccccc2C1=O)OC(C(=O)c1ccc(Cl)cc1)c1ccccc1 (centres undefined)	0.1%	4.0	-7%	-25%	-4.2%[38.3 µM]	-2.7	17%
COc1ccccc1S(=O)(=O)Cc1ccc(C(=O)NCC(OC)OC)o1	0.9%	2.7	4%	8%	0.3%	4.5	8%
COc1ccc(CNC(=O)c2ccc(CS(=O)c3ccccc3)o2)cc1 (centres undefined)	0.4%	x	u	10%	-0.9%	-6.4	23%
Cc1ccc(C(=O)NC(=S)NCC2CCCO2)cc1Br (centres undefined)	1.1%	1.6	-3%	-28%	2.2%	-1.4	-1%
O=C(N/N=C/c1cn(Cc2cccc(F)c2)c2ccccc12)c1cc(O)cc(O)c1	-22%	2.0	17%	-17%	-0.6%	-0.4	-21%
C=CCNC(=O)/C(C#N)=C/c1ccccc1[N+](=O)[O-]	x	5.9	-2%[15.4 µM]	8%	-0.5%	-5.7	-1%
CC(NC(=O)CCc1nc2cc(S(=O)(=O)N3CCOCC3)ccc2n1C)c1ccc(S(N)(=O)=O)cc1 (centres undefined)	-11%	x	u	-12%	1.5%	-3.5	2%
